# From PubChem
# VDR inhibitor: Inhibitors of the vitamin D receptor (VDR): qHTS. Vitamin D3 receptor (Homo sapiens), P11473. Potency, µM, for the others: max response, negative = inhibition, most hits filed as inhibitors. 400,000 compounds, 0.93% hits. VDR-SRC2-3 peptide fluorescence polarization, 2 h. AID 504847, 2011; active means well fitted inhibition curve with a large enough effect; inconclusive means small, poorly fitted or top-dose-only effect, or another doubt; inactive means no such curve, though single readings can be large or run the other way; further: series mostly up to about 120 µM
# Target sequence (P11473 whole entry, looked up): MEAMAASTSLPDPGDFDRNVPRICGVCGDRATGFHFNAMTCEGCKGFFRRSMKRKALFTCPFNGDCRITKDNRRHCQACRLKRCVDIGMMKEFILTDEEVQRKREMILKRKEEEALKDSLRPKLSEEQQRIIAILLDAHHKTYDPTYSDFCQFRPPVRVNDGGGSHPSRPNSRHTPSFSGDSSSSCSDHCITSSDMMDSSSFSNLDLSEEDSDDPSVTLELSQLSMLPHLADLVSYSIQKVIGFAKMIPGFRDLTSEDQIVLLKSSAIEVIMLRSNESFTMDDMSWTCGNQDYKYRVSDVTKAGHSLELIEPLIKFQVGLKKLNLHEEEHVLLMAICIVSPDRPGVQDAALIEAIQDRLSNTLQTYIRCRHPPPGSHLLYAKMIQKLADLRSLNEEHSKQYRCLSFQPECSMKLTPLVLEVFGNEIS
#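 Two reagent solutions held at 4 deg C in the dark were dispensed, compounds pinned at 23 nl, and the mixture incubated 2 h at room temperature. Read-out: fluorescence polarization of VDR–SRC2-3 peptide binding.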
# * = called active by the depositor; ? = inconclusive; & = joins results of further samples; [ ] = another dose, or the depositor's remark. On the % scale 0 is the no-effect control and ±100 the full control effect; potency means the concentration at half of the fitted maximal effect.
VDR inhibitor | SMILES
5% | O=C(NC1CCCCC1)c1ccc2c(c1)sc1nc(-c3ccc(F)cc3)cn12
-2% | Cc1ccc(-c2nnc(SCC(=O)N(C)C)nc2-c2ccc(C)cc2)cc1
2%&-5% | CCOC(=O)C1C(C(=O)OC)=C(C2=CCCCC2)c2ccccc2N1S(=O)(=O)C(F)(F)F (centres undefined)
18% | O=C(Cc1ccccc1F)Nc1ccc(Cl)nc1
-9% | CCOC(=O)c1ccc(N2C(=O)c3n[nH]c(-c4ccco4)c3C2c2ccc(C(=O)OC)cc2)cc1 (centres undefined)
3% | CC(=O)c1cc2c(cc1NC(=O)CN1CCC(Cc3ccccc3)CC1)OCO2
? | COc1cccc(CNC(=O)CCNC(=O)c2ccc(Br)o2)c1
10% | COc1ccc(-c2cc(C(=O)N3CCN(C(c4ccccc4)c4ccccc4)CC3)no2)cc1
6% | O=C(Nc1cccc(-c2nc3cccnc3s2)c1)c1cccc(Br)c1
17% | CCCCOc1ccc(/C=C/C(=O)OCC(=O)N2CC(=O)Nc3ccccc32)cc1OCC
-17% | CCOc1ccccc1NC(=O)CSc1nnc(-c2cnccn2)n1C
-5% | O=C(NCCCN1CCOCC1)c1cccc(S(=O)(=O)Nc2ccccc2Cl)c1
3% | CCCc1cc(NCc2ccccn2)n2nc(C)c(-c3ccccc3)c2n1
-1% | O=C1CSC(=Nc2ccccc2)N1
-12% | Cc1ccccc1OCC(=O)NCC1CCCO1 (centres undefined)
3% | Cc1ccc(Nc2ncnc3sc(C)c(C)c23)cc1C
-13%&-1% | CCCCN(CCCC)CCNC(=O)c1cn(CC)c2ccc(S(=O)(=O)N(C)C3CCCCC3)cc2c1=O
-11% | CSc1ccc(CN2CCSCC2)cc1
-13% | CCN(Cc1ccccc1)C(=O)c1cc2c(OC)c(OC)c(OC)cc2[nH]1
9% | COc1ccc(-n2c(=O)c(-c3cccs3)nc3cnc(N(C)C)nc32)cc1
-17% | CCOC(=O)CN1CC23C=CC(O2)C(C(=O)O)C3C1=O (centres undefined)
-18% | CC(=O)c1ccc(NC(=S)NCC(c2ccco2)N2CCCC2)cc1 (centres undefined)
-9% | Cc1ccc(NC(=O)c2sc(C)nc2C)c(C)c1
7% | Cc1c(O)nc(SC2CC(=O)N(c3ccccc3)C2=O)[nH]c1=O (centres undefined)

# Seven of the entries above in order of the VDR inhibitor value, highest first:
Molecule,VDR inhibitor
Cc1c(O)nc(SC2CC(=O)N(c3ccccc3)C2=O)[nH]c1=O (centres undefined),7%
O=C(Nc1cccc(-c2nc3cccnc3s2)c1)c1cccc(Br)c1,6%
O=C(NC1CCCCC1)c1ccc2c(c1)sc1nc(-c3ccc(F)cc3)cn12,5%
Cc1ccc(-c2nnc(SCC(=O)N(C)C)nc2-c2ccc(C)cc2)cc1,-2%
Cc1ccc(NC(=O)c2sc(C)nc2C)c(C)c1,-9%
CSc1ccc(CN2CCSCC2)cc1,-11%
CCOC(=O)CN1CC23C=CC(O2)C(C(=O)O)C3C1=O (centres undefined),-17%

# Next entries follow:
VDR inhibitor | SMILES
3% | O=C(COC(=O)c1cccs1)NCCc1ccc(F)cc1
2% | CCCCOCCCNC(=O)COc1ccccc1
23% | Cc1cccc(NC(=O)C2CCN(S(=O)(=O)c3ccc(F)cc3)CC2)c1C
-15% | COC(=O)c1c(NS(=O)(=O)c2ccc(C)cc2)sc2c1CCC(C)C2 (centres undefined)
-5% | Cc1ccc(C)c(NC2=NS(=O)(=O)c3ccccc32)c1
7% | N#Cc1cc(-c2ccccc2)nc(N2CCNCC2)n1
3% | C/C(=N\N=C(c1ccccc1)c1ccccc1)c1cccs1
-4% | O=C(Nc1ccc(S(=O)(=O)N2CCCCC2)cc1)c1ccc(CN2CCc3ccccc3C2)cc1
-20% | Cc1cc(C)cc(NC(=O)N2CCCCCCC2)c1
13% | CCCCCNC(=O)c1cc(S(=O)(=O)N2CCCCC2)ccc1F
-11% | CC(=O)Nc1ccc(C(=O)Cn2nnc3ccccc3c2=O)cc1
2% | CCOc1ccc2c(c1)N(C(=O)CN1C(=O)CCC1=O)C(C)(C)C=C2C
13% | O=C(COC(=O)c1ccc(F)cc1F)NCCNC(=O)COC(=O)c1ccc(F)cc1F
3% | CC(C)(C)c1ccc(C(=O)NNc2ncnc3c2cnn3-c2ccccc2)cc1
9% | O=C(OCC(=O)N1CCN(C(=O)c2ccco2)CC1)c1cc(-c2cccc(Br)c2)nc2ccccc12
-3% | COC(=O)CC1=NC(=O)CS1
8% | N/C(=N\OC(=O)c1cccc([N+](=O)[O-])c1)c1cccnc1
-6% | Cc1ccc(C)c(NC(=O)CN(C)C(=O)Cc2ccc(Cl)cc2Cl)c1
-4% | CCOC(=O)C1=C(COC(=O)c2cccs2)NC(=O)NC1C (centres undefined)
6% | Cc1cc(=O)n2[nH]c(NC(=O)c3cccc(Cl)c3)nc2n1
14% | CCOc1cc(OCC)cc(C(=O)Nc2cccnc2)c1
-7% | O=C(CSc1nc2ccc(NC(=O)CSc3nnnn3Cc3ccccc3)cc2s1)Nc1ccccc1
-7% | Cc1cc([N+](=O)[O-])ccc1N1C(=O)c2ccc(C(=O)Nc3ccccc3C(=O)O)cc2C1=O
-3% | COc1ccc2c(c1)OC[C@H]1c3cc4c(cc3O[C@@H]21)OCO4
-7% | CCCCNC(=O)CSc1nc(CCC)nc2ccccc12
-7% | CCC(C)[C@H](NC(=O)C1CCC(CNC(=O)[C@@H]2CCCN2C(=O)OC(C)(C)C)CC1)C(=O)O (some centres undefined)
-8% | CCOC(=O)C1=C(c2ccccc2)O/C(=C(\C(=O)OC)C(F)(F)F)S1
12% | CC(C)(C)c1ccc(OCCC(=O)OCC(=O)NC2CCS(=O)(=O)C2)cc1 (centres undefined)
-19% | CCCN1CCc2c(sc3nc(SCC)n(-c4ccc(OC)cc4)c(=O)c23)C1
14% | Cc1ccc(NC(=O)c2ccccc2OCC(=O)Nc2ccccc2F)cc1S(=O)(=O)N(C)C
-15% | Cc1cc(C)n2c(SCC(C)C)nnc2n1
-7% | Cc1ccc(CNC(=O)CCCn2c(=O)[nH]c3ccccc3c2=O)cc1
-3% | O=C(Nc1ncc(Cc2cccc(Cl)c2Cl)s1)C1CCCO1 (centres undefined)
16% | CCN(CC)S(=O)(=O)c1cc(C(=O)OC(C)C(=O)NCc2ccco2)ccc1C (centres undefined)
8% | CCc1ccc(N(CC(=O)Nc2ccccc2C(=O)N2CCCC2)S(C)(=O)=O)cc1
-1% | O=C(NCCc1ccc(Cl)cc1)c1nnc(Cc2ccc(Cl)cc2Cl)o1
2% | CC[C@H](C)[C@H](NC(=O)[C@H](Cc1ccc(O)cc1)NC(=O)[C@@H]1CCCN1C(=O)[C@@H](N)CCCN=C(N)N)C(=O)N[C@@H](CC(C)C)C(=O)O
-10% | CCOc1ccccc1NC(=O)CN1C(=O)CSC(C)C1=O (centres undefined)
15% | Cc1ccc(C(=O)N2CCSCC2)cc1
-16% | CCCCn1c(CCC(=O)O)nc2cc(S(=O)(=O)N(C)C)ccc21
-6% | CCOC(=O)C1=C(C)NC(=O)NC1
-10% | Cc1ccc(C2OCC(C)([N+](=O)[O-])CO2)cc1 (centres undefined)
-5% | O=C(NCC1CCCCC1)c1cc(S(=O)(=O)N2CCOCC2)ccc1F
2% | O=C(CC(C(=O)O)c1ccc(F)cc1)c1ccc(Cl)cc1 (centres undefined)
6% | COc1ccc(CN2C(=O)NC3(CCCCC3)C2=O)cc1F
-25% | C=CCOC(=O)C1=C[C@@H](c2ccc(C(F)(F)F)cc2)C[C@@H](OCCCCO)O1
-17% | N/C(=N\OC(=O)COc1ccc(Cl)cc1Cl)c1ccncc1
-1% | COC(=O)c1ccc(-c2noc(CN(C)CC3CCCCO3)n2)cc1 (centres undefined)
-4% | CCCCC1C2C(=O)N(c3ccc(C)cc3)C(=O)C2ON1c1ccccc1 (centres undefined)
-10% | Cc1cc(C)nc(Sc2ncnc(N)c2[N+](=O)[O-])n1
-9% | CCOC(=O)c1c(NC(=O)CSc2nnc(CNc3ccc(F)cc3)o2)sc(C)c1C
-4% | O=C(CN1CCN(c2ncccn2)CC1)Nc1ccccc1C(F)(F)F
17% | Cc1cc(C)c(S(=O)(=O)NCCc2ccccc2)c(C)c1
-8% | CC(=O)N1CCN(S(=O)(=O)c2ccc(S(=O)(=O)N3CCCC(C)C3)cc2)CC1 (centres undefined)
-18% | Cc1cc(Br)ccc1-n1[nH]c(C)c(C=Nc2cccc3nsnc23)c1=O
-18% | CCC1(CC)C(=O)N(C)C(=O)NC1=Nc1ccccc1
-14% | COC(=O)c1cc2ccccc2c([N+](=O)[O-])c1O
18% | NS(=O)(=O)c1ccc(CNC(=O)c2cc(=O)c3cc(Cl)ccc3o2)cc1
6% | COc1ccc(CNC(=O)c2cnn3c(C(F)F)cc(C)nc23)cc1
-12% | Cc1ccc(-c2ccc(CCC(=O)O)n2-c2ccc(O)cc2)cc1

# 2 entries drawn at random from those above, as already listed:
VDR inhibitor | SMILES
-5% | Cc1ccc(C)c(NC2=NS(=O)(=O)c3ccccc32)c1
2%&-5% | CCOC(=O)C1C(C(=O)OC)=C(C2=CCCCC2)c2ccccc2N1S(=O)(=O)C(F)(F)F (centres undefined)

# The listing continues.
VDR inhibitor | SMILES
-17% | O=C(CCCO)N/N=C/c1ccccc1[N+](=O)[O-]
15% | O=C(O)C(F)=C(c1ccccc1)c1ccccc1
12% | CC(C)C[C@H](NC(=O)c1[nH]cnc1C(=O)Nc1ccc(CNC(=O)OC(C)(C)C)cc1)C(=O)OCc1ccccc1
-15% | CC(C)Cc1nc2n[nH]c(N)c2c2c1CCCC2
5% | CC/C(=N\NC(=O)c1csc(C)c1C)c1cccs1
34%[activator] | COCCn1c(Cc2ccccc2)nnc1SCC(=O)NC1CCCCC1
? | COCCCN=C(c1ccco1)n1c(=S)nc(-c2ccco2)n(CCCOC)c1=S
10% | Cc1ccc(/C(N)=N/OC(=O)c2ccc3c(c2)OCO3)cc1
8% | O=C(COC(=O)/C=C/c1ccc(OC(F)F)cc1)NC1CCCCC1
-21% | COC(=O)c1cc(=O)n(Cc2cccs2)c(=Nc2ccc(F)cc2)s1
-17% | CCCC(C)NC(=O)C1CC(=O)N(CCc2ccc(F)cc2)C1 (centres undefined)
29% | Cc1nc2ccc(S(=O)(=O)NCC(=O)N3CCC(N4CCCCC4)CC3)cc2s1
-12% | Cc1ccnc(NC(=O)c2ccco2)n1
? | COc1ccc(NC(=O)N2CCN(S(C)(=O)=O)CC2)cc1
4% | CCOC(=O)C1=C(CS(=O)(=O)c2ccc(F)cc2)NC(=O)NC1c1ccc(O)c(O)c1 (centres undefined)
-10% | Cc1ccsc1CNC1C2CC3CC(C2)CC1C3 (centres undefined)
6% | O=C(CCCN1C(=O)/C(=C/c2ccccc2Cl)SC1=S)NNC(=O)c1ccncc1
8% | CCCCN(C(=O)CSc1nnc(-c2ccc(Cl)cc2)o1)c1c(N)n(CC(C)C)c(=O)[nH]c1=O
-11% | C/C(=N\NC(=O)c1ccc(CSc2nncn2C)cc1)c1ccc(C#N)cc1
? | COc1ccccc1C1C(C(=O)c2ccc(C)o2)=C(O)C(=O)N1c1cc(C)on1 (centres undefined)
14% | COc1ccc(CC(=O)NCC(=O)N/N=C/c2cc(Br)ccc2OC)cc1
-8% | O=C(C[C@@H]1C/C=C\CCC(=O)O[C@H](c2ccccc2)CNC1=O)N[C@H](CO)Cc1ccccc1
-10% | C(=N\n1cnnc1)/C1CCCCC1
6% | O=C(Cc1ccccc1)N1CCNCC1
1% | COc1cccc(/C=N/NC(=O)c2ccccc2)c1OS(=O)(=O)c1ccccc1
7% | Cc1c(C(N)=O)sc2ncn(CC(=O)NCCc3ccccc3)c(=O)c12
2% | CCOc1ccc(NC(=O)COc2ccc3c(c2)OCO3)cc1
0% | Cc1cc(C(=O)N/N=C/c2ccc([N+](=O)[O-])s2)c2ccccc2n1
-8% | CSc1ccccc1NC(=O)c1cnc2sc(C)cn2c1=O
6% | Cc1ccc(O)c(/C=N/NC(=O)c2[nH]ncc2Br)c1
13% | CCCCCCCCCCCCOCCCN
-8% | C[n+]1cccc(C(=O)N/N=C/c2ccc3c(c2)OCO3)c1
8% | CCOC(=O)Cc1csc(NC(=O)CCSc2ccccc2)n1
-2% | CSc1ccccc1C(=O)Nc1cc(C)cc(C)c1
-20% | CC(C)(C)OC(=O)N1CCC(C(=O)Nc2cccc(C(=O)N3CCCCC3)c2)CC1
-2% | COC(=O)C1=C(C)Nc2nnnn2C1c1ccc(Cl)cc1Cl (centres undefined)
-11% | CN(C(=O)CSc1nnc(Cc2cccc3ccccc23)n1N)C1CCS(=O)(=O)C1 (centres undefined)
1% | COc1cccc(CNC(=O)C2CCN(S(=O)(=O)c3ccc(F)cc3)CC2)c1
9% | COc1ccc(CNc2nc(-c3ccccc3)nc3ccccc23)cc1OC
-9% | COc1ccc(OC)c(-c2csc(NC(=O)COC(=O)C3CC3)n2)c1
-7% | CCOc1ccc(-c2cc3nc(C4CCN(C(=O)OC(C)(C)C)CC4)c(C(=O)Nc4cccc(CC)c4)cn3n2)cc1
1% | O=C(c1cc2ccc3cccnc3c2[nH]1)N1CCN(c2ccc(Cl)cc2)CC1
-6% | Cc1nnc(SCC(=O)Nc2cc(-c3cc(C)c(C)cc3C)nn2-c2ccccc2)s1
-18% | CCCCCn1cnc2c(sc3nc4c(cc32)CSC(C)(C)C4)c1=O
-5% | CC1CCC(O)(C(C(=O)O)c2ccccc2)CC1 (centres undefined)

# Individual results from the entries so far:
# In VDR inhibitor, COc1ccc(CNc2nc(-c3ccccc3)nc3ccccc23)cc1OC has 9%
# In VDR inhibitor, CCOc1ccc(-c2cc3nc(C4CCN(C(=O)OC(C)(C)C)CC4)c(C(=O)Nc4cccc(CC)c4)cn3n2)cc1 has -7%
# In VDR inhibitor, CN(C(=O)CSc1nnc(Cc2cccc3ccccc23)n1N)C1CCS(=O)(=O)C1 (centres undefined) has -11%

# Only part of the results is shown. The share of hits here may be higher or lower than overall.
